Menin-MLL FL inh: qHTS Assay for Inhibitors Targeting the Menin-MLL Interaction in MLL Related Leukemias: Competition With Fluorescein Labeled MLL-derived Peptide. Fluorescence polarization, fluorescein-MLL peptide displacement from menin. FP activity change, % at 61.4 µM. 290,000 tested, under 10 active. AID 1766, 2009; inconclusive = falling polarisation curve, or a change in total fluorescence; inactive = total fluorescence flat and polarisation flat or rising; no compound was filed as active; the % refers to the polarisation; negative = inhibition;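 further: % of control where 0% means no effect; inhibitors lower the polarisation; unlabelled MLL peptide was the positive control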
gsp agonist: qHTS for Agonist of gsp, the Etiologic Mutation Responsible for Fibrous Dysplasia/McCune-Albright Syndrome: qHTS | AID 624287, 2012 | 0.13% of 340,000 active | Potency, µM (doses to about 76.9 µM), without a hit: top-dose activation (cAMP increase), usual class: activators | gsp mutant cells, cAMP HTRF, 30 min; control for the full effect not named in the record; active = well fitted activation curve with a large enough effect; inconclusive = small, poorly fitted or top-dose-only effect, or another doubt; inactive = no such curve, though single readings can be large or run the other way; cell line not stated here;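 further: phosphodiesterase inhibitor Ro 20-1724 added with compounds to block cAMP breakdown; potency means the concentration at half of the fitted maximal effect; nearly all actives have a fitted effect of over 60% in size; about a fifth of the inactives were tested at one dose only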
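Cells stably selected in G418 were plated at 2000/well, grown 16-24 hr, then given compounds in DMSO with the PDE inhibitor […] (300 uM solution added) for 30 min at 37C; cAMP was read by HTRF.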
gsp antag: qHTS for Antagonists of gsp, the Etiologic Mutation Responsible for Fibrous Dysplasia/McCune-Albright Syndrome: qHTS; gsp-mutant cells, cAMP HTRF, 30 min; control for the full effect not named in the record; Potency, µM (top dose mostly 76.9 µM), for inactives: at the top dose activity change, negative = inhibition, actives largely listed as inhibitors; 0.4% of 340,000 active; AID 624288, 2012; active = falling curve of any shape with a large fitted effect; inconclusive = falling curve, mostly with a smaller effect; inactive = flat or rising curve; cell line not stated here;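 further: intracellular cAMP measured with PDE inhibitor Ro 20-1724 present during compound exposure; potency means the concentration at half of the fitted maximal effect; on the % scale 0 is the no-effect control and ±100 the full control effect; nearly all actives have a fitted effect of over 65% in size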
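Cells, 2000/well, grown 16–24 h in DMEM 10% FBS with 0.5 mg/ml G418, then compounds plus […] (300 uM addition stock), 30 min at 37C. cAMP read by HTRF (cAMP-d2 and anti-cAMP antibody-K in lysis buffer) after 30 min RT.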
TRPML1 inh: qHTS for Inhibitors of the Human Mucolipin Transient Receptor Potential 1 (TRPML1). TRPML1-inducible cells, Ca2+ dye fluorescence, FDSS; hits give low values; inhibition of EC80 agonist-evoked calcium signal. activity change, negative = inhibition, % (test concentration not listed). 0.02% of 390,000 active. AID 624415, 2012; in the data active means activity change below about -50%; inconclusive means about -30% to -50%; inactive means above about -30%;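 further: stimulus is agonist 54-4 at its EC80 concentration; on the % scale 0 is the no-effect control and ±100 the full control effect; compound concentration not given in the record; the text of the record puts the active cut at -80%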
Target sequence (Q9GZU1 whole entry, looked up): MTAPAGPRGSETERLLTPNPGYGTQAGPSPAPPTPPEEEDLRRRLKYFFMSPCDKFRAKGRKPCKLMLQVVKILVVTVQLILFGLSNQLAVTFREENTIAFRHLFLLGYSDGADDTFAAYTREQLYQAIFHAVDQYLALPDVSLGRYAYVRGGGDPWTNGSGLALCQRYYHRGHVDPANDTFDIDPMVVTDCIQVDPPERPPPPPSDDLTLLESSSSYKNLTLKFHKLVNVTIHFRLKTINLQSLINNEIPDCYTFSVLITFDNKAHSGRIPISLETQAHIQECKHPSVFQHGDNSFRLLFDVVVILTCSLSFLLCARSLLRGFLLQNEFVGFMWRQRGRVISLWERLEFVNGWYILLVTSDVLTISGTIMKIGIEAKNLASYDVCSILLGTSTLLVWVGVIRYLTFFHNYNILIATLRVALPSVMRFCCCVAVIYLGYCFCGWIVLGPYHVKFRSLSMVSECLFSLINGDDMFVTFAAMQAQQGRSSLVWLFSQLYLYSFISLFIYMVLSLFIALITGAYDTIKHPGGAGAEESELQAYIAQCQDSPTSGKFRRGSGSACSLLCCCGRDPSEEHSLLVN
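Tet-induced TRPML1-DL cells loaded with Ca8 no-wash calcium dye were read kinetically on FDSS. Compound addition was followed by EC80 agonist 54-4 (4 uM final); inhibition was read over 110 s.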
ClpP mod: qHTS Assay for Activators of ClpP | ATP-dependent Clp protease proteolytic subunit (Bacillus subtilis (strain 168)), P80244 | purified B. subtilis ClpP, FRET peptide cleavage, 20 min | Potency, µM (series often up to 57.5 µM), without a hit: at the highest dose activity change, negative = active | 1.9% of 340,000 active; active = well fitted falling curve with a large enough effect; inconclusive = small, poorly fitted or top-dose-only effect; inactive = no such curve, though single readings can be large or run the other way; further: potency means the concentration at half of the fitted maximal effect; the source files actives as falling curves though it sought activators and does not explain the sign; nearly all actives have a fitted effect of over 65% in size; many hits overshoot -100%
Target sequence (P80244 whole entry, looked up): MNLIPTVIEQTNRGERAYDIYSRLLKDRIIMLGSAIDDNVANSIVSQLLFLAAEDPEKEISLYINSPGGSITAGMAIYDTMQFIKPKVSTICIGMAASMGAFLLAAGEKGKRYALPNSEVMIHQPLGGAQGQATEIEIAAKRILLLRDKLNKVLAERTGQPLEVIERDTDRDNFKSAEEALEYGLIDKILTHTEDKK
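Purified B. subtilis ClpP, 10 microg/mL final in Tris/HCl pH8 with KCl, BSA, glycerol and Tween-20, cleaved an Abz/nitrotyrosine-quenched decapeptide. Fluorescence (ex 320, em 430) was read at 0 and 20 min at room temperature. Delta was normalized to 5.8 microM ADEP and DMSO/no-enzyme controls.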
TRPML1 ag: qHTS for Agonists of the Human Mucolipin Transient Receptor Potential 1 (TRPML1) | Mucolipin-1 (Homo sapiens), Q9GZU1 | TRPML1-expressing cells, Ca2+ dye fluorescence, FDSS; host cell line not named in the record; reference of the full effect not given here | activation, % (no concentration beside the values) | 0.12% of 410,000 active; in the data active = activation above about 50%; inconclusive = about 30% to 50%; inactive = below about 30%; further: 0% is about no effect; the text of the record puts the active cut at 80%
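Tetracycline-induced TRPML1-DL cells are seeded and incubated overnight before loading with a no-wash Ca2+ dye and quencher. Agonist activity is taken from the 110 s fluorescence read following compound pin-transfer on an FDSS, before EC80 54-4 challenge.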
An asterisk follows results filed as active; ? = inconclusive; . = not tested or not shown; & = joins results of further samples; [ ] = another dose, or the depositor's remark. Rows are unselected; about 2.1% have a hit in one of these screens.

SMILES	Menin-MLL FL inh	gsp agonist	gsp antag	TRPML1 inh	ClpP mod	TRPML1 ag
CN1C(=O)c2ccc(NC(=O)CCS(=O)(=O)c3ccccc3)cc2C1=O	-0.2	-2%[15.4 µM]	14%	14	.	0.1
N#Cc1c(N)oc(-c2ccccc2)c1-c1ccccc1	7.7	3%	8%	-2	-7.1%	-0.7
Cn1c(SCC(=O)Nc2sccc2C(N)=O)nnc1-c1ccncc1	3.7	11%[15.4 µM]	3%	-19	.	0.8
CC1CN(S(=O)(=O)c2ccc(NC(=O)c3cc(-c4ccccc4O)n[nH]3)cc2)CC(C)O1 (configuration not stated)	-2.4	-28%	-27%	-21	-7.1%	0.0
COc1ccc(-c2nn3cnnc3s2)cc1OC	1.3	-34%[inhibitor]	-1%	67	?	0.4
COCCOC(=O)c1c(C)oc2ccc(OCC=C(C)C)cc12	3.5	-4%	-12%	-5	-3.3%	0.5
COCCCNC(=O)CCc1nc(-c2ccccc2Cl)no1	2.0	1%	1%	-1	-0.6%	-1.0
Cc1ccc(NC(=O)c2cc(S(=O)(=O)N3CCCC3)c[nH]2)c(C)c1	-3.7	1%	1%	0&-3	-1.3%&-0.1%	-1.0&-0.9
COc1ccccc1C(=O)NNC(=O)c1ccc(Br)o1	.	-1%	21%	1	-0.4%	0.3
CCN(CC)S(=O)(=O)c1ccc(S(=O)(=O)N2CCCC(C(=O)NC3CC3)C2)cc1 (configuration not stated)	4.3	-18%[15.4 µM]	7%	19	.	-0.3
O=C(NCCO)C1(c2ccccc2)CCCC1	4.0	-4%	14%	-4	1.5%	0.6
O=C(CSc1nnc(Cc2cc(=O)[nH]c(=O)[nH]2)n1-c1ccccc1)N1CCCc2ccccc21	3.2	-17%	16%	8	-1.8%	-0.4
CC1=NC(C(F)(F)F)(C(F)(F)F)C2=C(CC(C)(C)CC2=O)N1Cc1ccco1	0.5	1%	-27%	1	-0.4%	0.0
Cc1sc2ncn(CC(=O)N3CCCCC3)c(=O)c2c1C	1.2	19%	1%	-2	0.3%	0.2
O=C(NCCC(=O)N1CCC2(CC1)NCCc1[nH]cnc12)c1cccc(Cl)c1	.	25%	4%	6	-0.8%	-0.4
Cc1ccc(-c2nc3ccc(NS(=O)(=O)c4ccccc4)cc3[nH]2)o1	1.4	-8%	-16%	13	-7.7%	-0.4
COc1ccc(N(CC(=O)NC2CCCC2)C(=O)c2ccc(C)s2)cc1OC	6.4	13%[15.4 µM]	0%	11	-0.7%	-0.8
Cc1ccc(CNC(=O)CN2C(=O)CC(c3ccc(C)c(C)c3)=Nc3ccccc32)cc1	.	.	.	-8	-4.4%	0.3
CCCS(=O)(=O)N1CCCC(C(=O)NC(C)c2ccc3c(c2)OCCO3)C1 (configuration not stated)	11	-40%	4%	0	0.2%	-1.3
CCCCC(=O)NS(=O)(=O)c1ccc(N=NN(CC)CC)cc1	0.1	-9%	8%	7	.	0.4
Nc1ccc(OC(=O)Nc2ccc(O)cc2)cc1	13	9%[15.4 µM]	-22%	11	-1.0%	-0.7
CC(=O)Nc1ccc(NC(=O)CN(C)S(=O)(=O)c2ccc3c(c2)CCC(=O)N3)cc1	.	-71%[inhibitor]	8%	11	-0.7%	0.4
Cc1noc(NS(=O)(=O)c2ccc(NC(=O)c3ccc(Br)cc3)cc2)c1C	.	.	.	-1	-1.3%	2.7
CC1CN=C(N(C(=O)Nc2ccccc2)c2ccc(S(=O)(=O)N3CCOCC3)cc2)S1 (configuration not stated)	0.6	35%	-2%	-19	-0.5%	-0.6
CN(C)c1ccc(/C=N/n2c(-c3cccnc3)n[nH]c2=S)cc1	3.7	12%	?	-3	.	0.1
O=c1cc(-c2ccc(O)c(O)c2)oc2c(C3O[C@H](CO)[C@@H](O)[C@H](O)[C@H]3O)c(O)cc(O)c12 (some centres not stated)	12	-3%	-5%	-13	-3.4%	-0.2
CCC(=O)N1C(Cc2ccccc2)COC1(C)C (configuration not stated)	0.0	23%[15.4 µM]	-8%	-20	-1.4%	-0.4
C[C@H](NC(=O)c1nc[nH]c1C(=O)N[C@@H](CCCCNC(=O)OC(C)(C)C)C(=O)OC(C)(C)C)C(=O)OC(C)(C)C	3.4	.	-6%	37	2.6%	1.2
COc1ccc(C2C=C(C)Nc3ncnn32)cc1 (configuration not stated)	.	-11%	-14%	6	3.0%	1.0
COc1cccc(CSc2nc3ccccc3c3nc(CCn4c(C)nc5ccccc54)nn23)c1	.	.	.	-6	0.0%	1.9
NC(=O)C1CCN(C(=O)c2ccc(-c3ccccc3Cl)o2)CC1	.	2%	-15%	15	0.4%	0.9
O=C1CCCc2ccccc2N1Cc1cccc(F)c1	-7.8	-16%[15.4 µM]	5%	3	0.1%	-0.8
CCOc1ccccc1NC(=O)CN1C=NS(=O)(=O)c2ccccc21	.	.	.	7	0.5%	-0.6
CCOC(=O)c1c(-c2ccc(-c3ccccc3)cc2)csc1NC(=O)c1cccc(N2C(=O)CCC2=O)c1	-0.6	-18%	-2%	5	16µM*	-0.2
O=C(COC(=O)/C=C/c1ccc(OC(F)F)cc1)Nc1cccc(S(=O)(=O)N2CCCC2)c1	.	20%	6%	10	-3.9%	2.3
O=C(CSc1nnc(-c2cccs2)o1)Oc1ccc(Cl)cc1	.	.	.	-5	23%	2.2
CCN1C(=O)c2ccccc2S(=O)(=O)c2ccc(C(=O)NCc3ccc(C)cc3)cc21	.	.	.	5	-1.9%	1.3
CC(C)Cn1cc(NC(=O)N2CCN(c3cccc(C(F)(F)F)c3)CC2)c2ccccc2c1=O	.	.	.	28	3.9%	1.5
COc1ccc(C2CC(c3ccc(OC)cc3)n3nc(N)nc3N2)cc1 (configuration not stated)	2.8	-24%	5%	34	-25%	0.7
CCN(CC)S(=O)(=O)c1ccc(OC)c(NC(=O)c2cc([N+](=O)[O-])ccc2Cl)c1	1.1	?	20%	40	0.9%	3.7
CC(C)Cc1nnc(NC(=O)CSc2nc(N)cc(=O)[nH]2)s1	3.7	1%	-2%	-6	4.7%	0.0
OC(COc1ccccc1F)CN1CCC(Cc2ccccc2)CC1 (configuration not stated)	-4.4	-23%	8%	-7	-1.5%	-0.4
NC(=O)C1CCN(CC(O)COc2ccc(-c3ccccc3)cc2)CC1 (configuration not stated)	-5.0	-16%	15%	5	.	0.4
CC(=O)Nc1ccc(N2CCN(C(C)=O)CC2)cc1	0.8	-33%[inhibitor]	7%	14	-1.3%	0.2
Cc1cccc(C(=O)NCCC(=O)Nc2ccc(C)c(F)c2)c1	-1.4	-1%[15.4 µM]	0%	12	.	0.3

Structures listed so far containing a CF3 group (2):
SMILES	Menin-MLL FL inh	gsp agonist	gsp antag	TRPML1 inh	ClpP mod	TRPML1 ag
CC1=NC(C(F)(F)F)(C(F)(F)F)C2=C(CC(C)(C)CC2=O)N1Cc1ccco1	0.5	1%	-27%	1	-0.4%	0.0
CC(C)Cn1cc(NC(=O)N2CCN(c3cccc(C(F)(F)F)c3)CC2)c2ccccc2c1=O	.	.	.	28	3.9%	1.5

The list goes on:
SMILES	Menin-MLL FL inh	gsp agonist	gsp antag	TRPML1 inh	ClpP mod	TRPML1 ag
O=C(Nc1ccc(-c2nc3cccnc3s2)cc1)c1ccc(Cl)nc1	4.1	8%[15.4 µM]	-4%	-6	.	0.8
CCOC(=O)C(C)n1cnc2sc(C)c(C)c2c1=O (configuration not stated)	2.8	-3%	6%	32	-0.8%	2.3
O=C1C2C3C=CC(C3)C2C(=O)N1Cc1ccccc1 (configuration not stated)	2.4	1%	-2%	-3	-0.1%	-0.3
NC(=O)c1c(NC(=O)Cn2nc(C(=O)O)c3ccccc3c2=O)sc2c1CCC2	9.0	13%	1%	.	0.9%	.
O=C(NC1=NCCS1)c1ccc(Cl)c(S(=O)(=O)N2CCCC2)c1	-4.3	-4%	-1%	-14	.	0.6
Cc1cc2ccccc2n2c(SCC(=O)Nc3ccc(S(=O)(=O)N4CCC(C)CC4)cc3)nnc12	3.0	-11%	-8%	5	-19%	-0.6
Cc1cnc(NC(=O)c2ccc3c(c2)OCCO3)s1	.	41%	4%	7	-15%	3.1
CC1(C)C(=O)Nc2ccccc2N1C(=O)COC(=O)/C=C/c1ccc(OC(F)F)cc1	.	0%[15.4 µM]	-9%	3	2.0%	0.7
Cc1nc(Nc2ccc(S(N)(=O)=O)cc2)oc1C	2.3	?	1%	-11	?	-0.9
Cc1onc(C(=O)N2CCN(C(c3ccccc3)c3ccccc3)CC2)c1[N+](=O)[O-]	0.8	-13%	-12%	-4	1.0%	1.0
O=C(CN1C(=O)C2CC=CCC2C1=O)Nc1ccc(F)c(Cl)c1 (configuration not stated)	.	-4%	.	-24	1.4%	0.1
CCOC(=O)Cc1csc(-n2sc3ccccc3c2=O)n1	?	2%	8%	-16	-2.7%	1.0
C=CCc1ccccc1OCC(O)CN1CCN(CCN2C(=O)c3cccc4cccc(c34)C2=O)CC1 (configuration not stated)	4.3	-18%[15.4 µM]	0%	-9	-10%	-0.5
CN1CCN(CC(C)(C)NS(=O)(=O)c2ccccc2)CC1	.	6%[15.4 µM]	6%	-9	?	0.6
COc1ccccc1CNC(=O)C1=CCN(S(=O)(=O)c2ccc(C)cc2)CC1	0.1	10%	-15%	-10	-1.3%	0.0
O=C(CN1CCCCCC1)Nc1cc([N+](=O)[O-])ccc1Cl	2.1	-39%[inhibitor]	1%	-17	.	0.3
CCOC1=NN(c2ncc(C(F)(F)F)cc2Cl)C(=O)/C1=C/N(C)C	-1.1	-13%[15.4 µM]	5%	-18	.	0.1
Cc1c(NC(=O)c2c(O)c3ccccc3n(C)c2=O)c(=O)n(-c2ccccc2)n1C	3.3	-6%	-5%	-5	.	0.5
Cc1cc(C)c2c(N)c(C(=O)Nc3ccc(F)cc3)sc2n1	-11	?	-6%	-18	?	1.9
CCN(CC(=O)N1CCCC1)S(=O)(=O)c1ccc(OC)cc1	-3.7	2%[15.4 µM]	2%	12	4.6%	-0.3
Cc1cc(=O)oc2c(C(=O)/C=C/c3ccccc3)c(O)ccc12	1.9	18%	-17%	5	-16%	1.3
COc1ccccc1N(CC(=O)Nc1ccc2c(c1)OCO2)S(=O)(=O)c1ccc(C)cc1	.	.	.	40	-3.6%	-0.3
Cc1ccc(-n2c(SCC(=O)N3CCC(C(=O)O)CC3)nc3ccccc3c2=O)cc1C	?	2%	-5%	1	.	1.9

Source: PubChem
